Ecoli rRNA inh: reduced GFP signal of wild-type E. coli, primary screen, bacterial rRNA inhibitor project, GFP/RFP fluorescence, OD600, single point | AID 720706, 2013 | GFP signal change (wild-type ribosome), % (no concentration beside the values) | 350,000 compounds, 1.6% hits | E. coli WT GFP vs humanized-ribosome RFP mutants, 24 h; stronger effect = lower value; DMSO median 0, no signal -100;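 active = significant combined selectivity score with lowered wild-type GFP, culture density cut under 30%, mutant RFP and density less affected; inactive = any of these conditions unmet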; also: one replicate is shown; some compounds called inactive have numbers as strong as hits
FGF22 binding: binders of human FGF22 protein, primary screen, FGF22 synaptogenesis inhibitor project, biophysical, thermal shift, single point; recombinant FGF22 thermal shift, SYPRO orange fluorescence; percent of sucrose octasulfate shift, DMSO zero; calls only at 9.99 µM; Fibroblast growth factor 22 (Homo sapiens), Q9HCT0; 340,000 compounds, 1.5% hits;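 active = melting point raised past a set limit in the mean and every replicate; three in four hits are not shown here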
Target sequence (Q9HCT0 whole entry, looked up): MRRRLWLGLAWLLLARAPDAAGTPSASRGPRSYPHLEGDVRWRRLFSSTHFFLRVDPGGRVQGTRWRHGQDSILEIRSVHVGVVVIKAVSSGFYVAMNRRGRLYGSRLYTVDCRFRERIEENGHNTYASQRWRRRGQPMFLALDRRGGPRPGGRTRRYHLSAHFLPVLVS
Ecoli rRNA inh OD600: recorded beside Ecoli rRNA inh, whose call it bears; OD600 change, %; measured here: OD600 growth;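 optical density of the mix in the first replicate; 0 = DMSO median and -100 = no signal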
Ecoli rRNA inh RFP: further read-out of Ecoli rRNA inh, marked with its call; RFP signal change, %; measured here: RFP humanized mutant strains;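 first replicate; 0 = DMSO median and -100 = no signal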
* = called active by the depositor; i = inactive.

SMILES	Ecoli rRNA inh	Ecoli rRNA inh OD600	Ecoli rRNA inh RFP	FGF22 binding
O=C(NCC[C@@H]1CC[C@@H](NC(=O)C2CCOCC2)[C@@H](CO)O1)c1cc(Cl)cc(Cl)c1	-3.9	-4.2	-0.7	i
C[C@@H]1CN([C@H](C)CO)C(=O)Cc2cc(NC(=O)C3CC3)ccc2O[C@H]1CN(C)C	0.8	-0.8	-0.9	i
COc1ccc2c3c(n(C)c2c1)[C@@H](CO)NCC31CN(CC2CC2)C1	3.3	5.1	-0.9	i
C[C@H]1CN([C@@H](C)CO)C(=O)c2cccc(NC(=O)C3CCOCC3)c2O[C@H]1CN(C)Cc1ccc(Cl)c(Cl)c1	2.3	4.0	-2.4	i
C[C@H](CO)N1C[C@H](C)[C@@H](CN(C)S(=O)(=O)c2cn(C)cn2)OCCCC[C@H](C)Oc2ccc(NC(=O)CCCCCC(=O)Nc3ccccc3N)cc2C1=O	-3.4	3.0	-3.0	i
Cc1ccc(S(=O)(=O)Nc2cccc3c2O[C@@H](CN(C)C(=O)Nc2ccc(C(F)(F)F)cc2)[C@@H](C)CN([C@H](C)CO)C3=O)cc1	-0.7	9.5	0.0	i
CCCC(=O)Nc1ccc2c(c1)OC[C@H](C)N(C(=O)C1CCCC1)C[C@@H](C)[C@@H](OC)CN(C)C2=O	-0.3	0.0	0.3	i
C/C=C/c1cnc2c(c1)C(=O)N([C@H](C)CO)C[C@@H](C)[C@H](CN(C)C(=O)Nc1ccc(C(F)(F)F)cc1)O2	-0.8	-11.0	-0.2	i
CN1C(=O)c2cc(NC(=O)Cc3cccs3)ccc2OC[C@@H]2O[C@@H](CC(=O)NCCCN3CCOCC3)CC[C@H]21	-1.8	1.8	-1.9	i
C[C@@H]1CN([C@@H](C)CO)C(=O)Cc2cc(NC(=O)Cc3ccccc3)ccc2O[C@@H]1CN(C)C(=O)Nc1ccccc1	3.0	1.2	-0.9	i
O=C(C[C@H]1CC[C@H]2[C@@H](COC[C@H](O)CN2Cc2ccccc2)O1)N[C@H]1CCN(Cc2ccccc2)C1	0.6	-2.8	-1.8	i
CC(=O)Nc1ccc2c(c1)C(=O)N(C)[C@H]1CC[C@@H](CC(=O)Nc3cn(C)nc3C)O[C@H]1CO2	7.3	5.7	-1.3	i
CC(C)NC(=O)N(C)C[C@H]1OCCCC[C@H](C)Oc2ccc(NC(=O)C3CCCCC3)cc2C(=O)N([C@H](C)CO)C[C@@H]1C	1.8	0.0	-1.1	i
CCNC(=O)C[C@H]1CC[C@@H](NS(=O)(=O)c2ccc(F)cc2)[C@@H](CO)O1	1.7	4.9	-1.7	i
COc1cccc(CNC(=O)C[C@H]2CC[C@@H](NC(=O)C3CCOCC3)[C@H](CO)O2)c1	1.9	-1.2	-0.7	i
CO[C@H]1CN(C)C(=O)c2cc(NC(=O)C3CCC3)ccc2OC[C@@H](C)N(CC2CCCCC2)C[C@@H]1C	-9.4	-41.7	2.9	i
C[C@@H]1CN([C@H](C)CO)C(=O)c2cccc(NS(=O)(=O)c3cn(C)cn3)c2O[C@@H]1CN(C)C(=O)Nc1ccc(C(F)(F)F)cc1	-5.1	-2.9	-1.9	i
C[C@@H]1CN([C@@H](C)CO)C(=O)c2cc(C3=CCCCC3)cnc2O[C@@H]1CN(C)C(=O)c1ccccc1	1.7	2.2	-1.2	i
CN(C)CC(=O)N1[C@H](CO)[C@H](c2ccc(-c3ccccc3F)cc2)[C@@H]1C#N	2.9	-5.2	-1.3	i
COc1ccc2c3c(n(C)c2c1)[C@@H](CO)NCC31CN(Cc2ccc(Cl)cc2)C1	-1.3	-31.1	-1.3	i
COC(=O)[C@H](Cc1ccccc1)NC(=O)[C@H]1O[C@@H](n2cnc3c(=O)[nH]c(N)nc32)[C@H](O)[C@@H]1O	25.6	16.6	1.1	i
Cc1noc(C)c1S(=O)(=O)Nc1cccc2c1O[C@@H](CN(C)Cc1ccc(C(F)(F)F)cc1)[C@@H](C)CN([C@H](C)CO)C2=O	4.2	-0.5	2.0	i
C[C@@H]1CN([C@@H](C)CO)C(=O)c2ccccc2-c2ccccc2CO[C@H]1CN(C)C(=O)Nc1ccnc(N2CCOCC2)c1	-1.2	1.7	0.8	i
C[C@H](CO)N1C[C@H](C)[C@@H](CN(C)CC2CC2)Oc2cc(-c3ccccc3)ccc2S1(=O)=O	0.9	-10.9	4.1	i
COCC(=O)Nc1ccc2c(c1)OC[C@@H](C)N(C(=O)c1ccccc1F)C[C@@H](C)[C@@H](OC)CN(C)C2=O	1.9	-1.3	0.1	i
COc1ccccc1NC(=O)N1C[C@@H](O)COC[C@H]2O[C@H](CC(=O)NCc3ccccc3)CC[C@@H]21	-7.7	1.3	-1.5	i
O=C(C[C@@H]1CC[C@@H]2[C@H](COC[C@@H](O)CN2C(=O)c2ccncc2)O1)NC1CCC1	0.9	0.2	-6.4	i
O=C(C[C@@H]1CC[C@H](NC(=O)c2ccccc2)[C@@H](CO)O1)NCCc1ccncc1	-0.2	7.0	0.6	i
COc1cccc(C#Cc2ccc3c(c2)O[C@H](CN(C)C(=O)CN2CCOCC2)[C@@H](C)CN([C@@H](C)CO)S3(=O)=O)c1	0.1	-4.6	13.7	i
COC(=O)c1cc2c(c3c4cc(F)ccc4n(S(=O)(=O)c4ccc(C)cc4)c13)C(=O)N(Cc1ccccc1OC)C2	6.6	5.1	7.8	i
C[C@H]1CN([C@@H](C)CO)C(=O)c2cc(NC(=O)C3CC3)ccc2O[C@H]1CN(C)Cc1ccc(Cl)c(Cl)c1	-2.0	-23.9	1.2	i
C[C@H](CO)N1C[C@H](C)[C@H](CN(C)Cc2ccc3c(c2)OCO3)Oc2ccc(NC(=O)NC3CCCCC3)cc2C1=O	-5.3	-11.2	-0.2	i
COc1ccc(CN(C)C[C@@H]2OCCCC[C@H](C)Oc3ccc(NS(=O)(=O)c4ccc(F)cc4)cc3C(=O)N([C@@H](C)CO)C[C@@H]2C)cc1	2.1	-0.9	1.6	i
Cc1noc(C)c1S(=O)(=O)Nc1ccc2c(c1)C(=O)N([C@@H](C)CO)C[C@H](C)[C@@H](CN(C)C(=O)NC1CCCCC1)O2	2.1	8.2	-0.8	i
CO[C@@H]1CN(C)C(=O)c2cc(NC(=O)c3ccccc3F)ccc2OC[C@H](C)N(C)C[C@H]1C	-0.5	-4.2	0.0	i
C[C@H](CO)N1C[C@H](C)[C@@H](CN(C)CC2CCCCC2)Oc2ccc(NC(=O)Nc3ccc(F)cc3)cc2CC1=O	5.8	-14.7	10.2	i

Reformatted bar-delimited: entries from further up
compound | Ecoli rRNA inh | Ecoli rRNA inh OD600 | Ecoli rRNA inh RFP | FGF22 binding
O=C(C[C@@H]1CC[C@H](NC(=O)c2ccccc2)[C@@H](CO)O1)NCCc1ccncc1 | -0.2 | 7.0 | 0.6 | i
COc1cccc(C#Cc2ccc3c(c2)O[C@H](CN(C)C(=O)CN2CCOCC2)[C@@H](C)CN([C@@H](C)CO)S3(=O)=O)c1 | 0.1 | -4.6 | 13.7 | i
COC(=O)c1cc2c(c3c4cc(F)ccc4n(S(=O)(=O)c4ccc(C)cc4)c13)C(=O)N(Cc1ccccc1OC)C2 | 6.6 | 5.1 | 7.8 | i
C[C@H]1CN([C@@H](C)CO)C(=O)c2cc(NC(=O)C3CC3)ccc2O[C@H]1CN(C)Cc1ccc(Cl)c(Cl)c1 | -2.0 | -23.9 | 1.2 | i
C[C@H](CO)N1C[C@H](C)[C@H](CN(C)Cc2ccc3c(c2)OCO3)Oc2ccc(NC(=O)NC3CCCCC3)cc2C1=O | -5.3 | -11.2 | -0.2 | i
COc1ccc(CN(C)C[C@@H]2OCCCC[C@H](C)Oc3ccc(NS(=O)(=O)c4ccc(F)cc4)cc3C(=O)N([C@@H](C)CO)C[C@@H]2C)cc1 | 2.1 | -0.9 | 1.6 | i

Continuation:
SMILES	Ecoli rRNA inh	Ecoli rRNA inh OD600	Ecoli rRNA inh RFP	FGF22 binding
Cc1ccc(S(=O)(=O)Nc2ccc3c(c2)C(=O)N([C@H](C)CO)C[C@@H](C)[C@@H](CN(C)S(=O)(=O)c2cccs2)O3)cc1	-6.7	-11.7	1.0	i
CCc1cnc(N2[C@H](CO)[C@@H](c3ccc(C4=CCCCC4)cc3)[C@@H]2C#N)s1	3.0	-21.4	30.0	i
COCC(=O)Nc1ccc2c(c1)C(=O)N(C)[C@@H]1CC[C@@H](CC(=O)NCc3ccccc3F)O[C@H]1CO2	3.0	5.6	1.2	i
C[C@@H]1CN([C@H](C)CO)C(=O)c2cc(C#CC3(O)CCCC3)cnc2O[C@@H]1CN(C)Cc1cccnc1	1.8	8.0	-0.8	i
C[C@H]1CN([C@@H](C)CO)C(=O)c2cc(C#CCN(C)C)cnc2O[C@@H]1CN(C)Cc1ccc(F)cc1	0.3	3.9	-5.1	i
CO[C@H](CN(C)C(=O)Nc1ccc(C(F)(F)F)cc1)[C@@H](C)CN(Cc1ccccc1Cl)[C@@H](C)CO	-53.2	-65.2	-8.9	i
CCCN(CCC)CCN1CCN(C(=O)[C@H](CCc2ccccc2)NC(=O)[C@H]2O[C@@H](n3cnc4c(N)ncnc43)[C@H](O)[C@@H]2O)CC1	8.6	14.5	1.5	i
Cc1noc(C)c1NC(=O)N[C@H]1C=C[C@H](CC(=O)N2CCN(C)CC2)O[C@@H]1CO	3.3	5.4	-1.8	i
C[C@H]1CN([C@@H](C)CO)C(=O)Cc2cc(NC(=O)C3CCCCC3)ccc2O[C@@H]1CN(C)Cc1ccncc1	-2.3	3.8	0.7	i
C[C@@H](NC(=O)C[C@@H]1CC[C@H](NC(=O)C2CC2)[C@H](CO)O1)c1ccccc1	1.6	-1.1	-1.3	i
CCCNC(=O)[C@H]1[C@H](CO)[C@H]2Cn3c(ccc(C4=CCCC4)c3=O)[C@@H]1N2C(=O)CC	3.2	2.6	-0.6	i
C[C@@H]1CN([C@H](C)CO)C(=O)CCCn2nncc2CO[C@@H]1CN(C)C(=O)Nc1ccc(F)cc1	0.9	2.2	0.1	i
CC(C)COC(=O)N(C)C[C@H]1OCc2ccccc2-c2c(n(C)c3ccccc23)C(=O)N([C@H](C)CO)C[C@@H]1C	-6.4	-11.7	9.9	i
COc1ccc(-c2cnc3c(c2)C(=O)N([C@@H](C)CO)C[C@@H](C)[C@H](CN(C)S(C)(=O)=O)O3)cc1	-3.6	-0.6	-1.8	i
CC(C)CC#Cc1ccc2c(c1)O[C@H](CN(C)Cc1ccccn1)[C@@H](C)CN([C@@H](C)CO)S2(=O)=O	-23.1	-28.0	32.3	i
CO[C@H](CN(C)C(=O)c1ccccc1F)[C@H](C)CN([C@@H](C)CO)S(=O)(=O)c1ccc(C)cc1	-0.6	-7.6	1.1	i
CO[C@@H]1CN(C)C(=O)c2cc(NC(C)=O)ccc2OC[C@@H](C)N(S(=O)(=O)c2cn(C)cn2)C[C@@H]1C	3.8	2.3	-1.7	i
CC(C)(O)C#Cc1ccc([C@H]2[C@@H](CO)N3CCCCN(S(C)(=O)=O)C[C@@H]23)cc1	3.8	8.0	-3.7	i
COc1ccc(S(=O)(=O)Nc2ccc3c(c2)C(=O)N([C@H](C)CO)C[C@@H](C)[C@@H](CN(C)C(=O)CCCN(C)C)OCCCC[C@@H](C)O3)cc1	2.2	-1.6	-1.8	i
COc1ccc(CN(C)C[C@H]2Oc3ccc(NC(=O)CCN4CCOCC4)cc3C(=O)N([C@H](C)CO)C[C@@H]2C)cc1	5.4	9.6	-0.3	i
C[C@H](CO)N1C[C@H](C)[C@H](CN(C)S(C)(=O)=O)Oc2ccc(NC(=O)Nc3ccccc3)cc2C1=O	4.1	3.7	0.0	i
CN1CCN(C(=O)C[C@@H]2CC[C@H](NC(=O)Nc3ccccc3F)[C@@H](CO)O2)CC1	1.8	-0.7	0.9	i
C[C@H](NC(=O)[C@H]1N[C@H]2c3ccc(-c4ccc(C(=O)N(C)C)cc4)c(=O)n3C[C@H]2[C@@H]1CO)c1ccccc1	1.9	7.3	-1.7	i
C[C@H]1CN([C@@H](C)CO)C(=O)c2cccc(NC(=O)Nc3ccc4c(c3)OCO4)c2O[C@H]1CN(C)Cc1ccc(-c2ccccc2)cc1	-6.2	-3.7	2.3	i
N#C[C@@H]1[C@@H](c2ccc(C3=CCCCC3)cc2)[C@H](CO)N1C(=O)c1ccccn1	2.1	-5.2	-0.3	i
COc1ccc(CN(C)C[C@@H]2OCCCC[C@@H](C)Oc3ccc(NC(=O)Nc4c(C)noc4C)cc3C(=O)N([C@@H](C)CO)C[C@H]2C)cc1	3.4	4.3	1.4	i
COc1cccc(C(=O)Nc2ccc3c(c2)C(=O)N(C)[C@@H]2CC[C@H](CC(=O)NCC4CC4)O[C@@H]2CO3)c1	-1.6	11.7	3.2	i
CCC(=O)Nc1ccc2c(c1)OC[C@@H](C)N(C(=O)Cc1cccnc1)C[C@H](C)[C@@H](OC)CN(C)C2=O	3.5	4.2	-0.3	i
CCCCS(=O)(=O)N1CCN(C(=O)C(=O)c2cccc(C(F)(F)F)c2)CC1	9.5	11.8	3.9	i
CCCN(C)C[C@@H]1OCCCC[C@@H](C)Oc2ccc(NC(=O)Nc3ccc(F)cc3)cc2C(=O)N([C@H](C)CO)C[C@@H]1C	3.5	-3.1	-0.5	i
CN1C(=O)c2cc(NC(=O)c3ccccc3)ccc2OC[C@H]2O[C@H](CC(=O)O)CC[C@H]21	3.8	7.8	0.9	i
O=C(CC1CC1)N1CC2(C1)[C@H](c1ccccc1)[C@H](CO)N2CC1CCOCC1	1.7	8.6	0.5	i
Cc1cc(C(=O)Nc2cccc3c2O[C@H](CN(C)CC2CCCCC2)[C@@H](C)CN([C@@H](C)CO)C3=O)n(C)n1	-5.2	-4.3	1.0	i

Bioassay records as filed in PubChem BioAssay.

Not all compounds are listed; rates above refer to the full screens.
